Bioassay records (PubChem)
ID4 binder – binders of human ID4 protein, primary screen, biochemical, small molecule microarray, single point; calls only; actives 1.2% (n = 31,000); AID 624137, 2012; Flag-ID4 binding, fluorescence F/B; DNA-binding protein inhibitor ID-4 (Homo sapiens), P47928;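 active = spot signal over background at p below 0.07 in all four prints; compounds were printed on slides so no solution concentration is given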;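 also: a binder raises fluorescence above local background on the spot; about 2 pmol printed per array spot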
Target sequence (P47928 whole entry, looked up): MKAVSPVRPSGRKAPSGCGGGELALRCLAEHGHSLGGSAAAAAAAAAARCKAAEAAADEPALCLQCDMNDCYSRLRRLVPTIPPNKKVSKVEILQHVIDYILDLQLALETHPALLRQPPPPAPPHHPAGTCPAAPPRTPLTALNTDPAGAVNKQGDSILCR
c-Myc SMM – binders of human c-Myc, primary screen, biochemical, small molecule microarray, anti-His fluorescence; Myc proto-oncogene protein (Homo sapiens), P01106; His-c-Myc binding; calls only; actives 1.5% (n = 17,000);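 active = spot fluorescence over background with P-value below 7% in all four replicate spots, showing protein binding; compounds were printed on slides so no solution concentration is given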;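 also: score is binary with 100 for all four spots passing and 0 otherwise; about 2 pmol printed per array spot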
STAT3 binder – STAT3 binders, primary screen, biochemical, small molecule microarray, single point, set 2 | His-STAT3 binding, anti-His fluorescence | actives 0.2% (n = 17,000) | Signal transducer and activator of transcription 3 (Homo sapiens), P40763 | AID 624138, 2012 | calls only;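 active = compounds whose four printed spots each show fluorescence over background unusually high for their array block, chance value under 7%; compounds were printed on slides so no solution concentration is given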;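 also: about 2 pmol printed per array spot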
Target sequence (P40763 whole entry, looked up): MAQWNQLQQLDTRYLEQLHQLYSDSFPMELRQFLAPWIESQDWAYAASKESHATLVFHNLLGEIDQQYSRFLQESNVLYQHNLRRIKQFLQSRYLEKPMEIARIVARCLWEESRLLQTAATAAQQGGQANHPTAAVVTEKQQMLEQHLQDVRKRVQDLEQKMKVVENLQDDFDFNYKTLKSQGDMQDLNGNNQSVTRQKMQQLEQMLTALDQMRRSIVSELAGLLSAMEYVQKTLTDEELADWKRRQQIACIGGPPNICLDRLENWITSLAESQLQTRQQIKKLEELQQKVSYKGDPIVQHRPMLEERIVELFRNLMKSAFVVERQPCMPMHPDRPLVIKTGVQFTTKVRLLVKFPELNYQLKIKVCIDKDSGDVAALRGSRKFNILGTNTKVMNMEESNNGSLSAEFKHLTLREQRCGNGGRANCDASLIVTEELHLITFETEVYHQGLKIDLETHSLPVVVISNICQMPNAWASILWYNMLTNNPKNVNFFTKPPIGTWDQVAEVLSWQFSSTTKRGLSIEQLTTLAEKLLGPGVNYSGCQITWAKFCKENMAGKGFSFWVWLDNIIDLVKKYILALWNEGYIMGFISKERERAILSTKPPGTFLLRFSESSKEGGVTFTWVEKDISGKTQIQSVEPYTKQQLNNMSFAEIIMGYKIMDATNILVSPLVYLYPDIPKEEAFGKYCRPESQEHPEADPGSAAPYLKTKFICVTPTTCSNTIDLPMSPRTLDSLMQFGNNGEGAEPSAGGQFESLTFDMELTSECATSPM
p53 mut binder – binders of human mutant p53, primary screen, biochemical, small molecule microarray, anti-GST fluorescence. mutant tumor protein p53 (GST-tagged), Homo sapiens. small molecule microarray binding. calls only. actives 0.4% (n = 17,000). AID 624136, 2012;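 active = compounds whose four printed spots each glow above background more than chance allows, each with a p-value under 7%; compounds were printed on slides so no solution concentration is given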;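 also: about 2 pmol printed per array spot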
Calls only; i = inactive; · = not tested or not shown; + = active, no number. Not a hit list; overall some 3.7% were active at least once.

SMILES | ID4 binder | c-Myc SMM | STAT3 binder | p53 mut binder
CS(=O)(=O)c1ccc(-c2nc(-c3ccc(F)cc3)c(-c3ccncc3)[nH]2)cc1 | · | i | i | i
C[C@H](CO)N1C[C@H](C)[C@@H](CN(C)S(=O)(=O)c2ccc(C#N)cc2)OCc2cnnn2CCCC1=O | i | i | i | i
Cc1ccc(S(=O)(=O)N(C)C[C@H]2Oc3ccc(NC(=O)NC4CCCCC4)cc3C(=O)N([C@H](C)CO)C[C@H]2C)cc1 | · | i | i | i
C[C@H]1CN([C@@H](C)CO)C(=O)Cc2cc(NC(=O)NC3CCCCC3)ccc2O[C@@H]1CN(C)S(=O)(=O)c1ccccc1 | i | i | i | i
CS(=O)(=O)N(CC(=O)Nc1ccccc1Br)c1ccccc1F | i | i | i | i
CC(C)=CCC1Cc2c(cc(O)c(C(=O)C(C)C)c2O)OC1(C)C (configuration not stated) | i | i | i | i
C[C@@H]1CN([C@H](C)CO)C(=O)CCCn2cc(nn2)CO[C@@H]1CN(C)Cc1ccc(Cl)c(Cl)c1 | i | i | i | i
COc1ccc([Si](C)(C)[C@H]2[C@H](CCn3cc([C@H](O)c4ccccc4)nn3)O[C@@]3(C(=O)N(Cc4cccc(N5CCC5=O)c4)c4ccccc43)[C@@H]2C)cc1 | i | i | i | i
C[C@H](CO)N1C[C@H](C)[C@H](CN(C)C(=O)C2CCCCC2)OCCCC[C@H](C)Oc2ccc(NS(=O)(=O)c3ccccc3)cc2C1=O | i | i | + | i
C[C@H](CO)N1C[C@H](C)[C@@H](CN(C)C(=O)Nc2ccc3c(c2)OCO3)Oc2c(NS(=O)(=O)c3ccccc3)cccc2C1=O | i | i | i | i
CC(C)NC(=O)N(C)C[C@@H]1OCCCC[C@@H](C)Oc2ccc(NC(=O)c3ccccc3)cc2C(=O)N([C@H](C)CO)C[C@H]1C | · | i | i | i
COc1ccc(S(=O)(=O)N(C)C[C@@H]2Oc3ccc(NC(=O)CCN4CCOCC4)cc3C(=O)N([C@@H](C)CO)C[C@@H]2C)cc1 | i | i | i | i
Cc1cc(Br)ccc1OCC(=O)NC(=S)Nc1ccccc1C(N)=O | i | i | i | i
CNC[C@@H]1OCCCC[C@H](C)Oc2ccc(NS(=O)(=O)c3cccs3)cc2C(=O)N([C@@H](C)CO)C[C@H]1C | i | i | i | i
Cc1ccc(S(=O)(=O)N(C)C[C@H]2Oc3ccc(NC(=O)CCC(F)(F)F)cc3CC(=O)N([C@@H](C)CO)C[C@H]2C)cc1 | · | i | i | i
CC(=O)c1cn(CC(=O)Nc2cccc(C(F)(F)F)c2)c2ccccc12 | i | i | i | i
Cc1noc(C)c1S(=O)(=O)N(C)C[C@H]1OCCCC[C@@H](C)Oc2ccc(N(C)C)cc2C(=O)N([C@@H](C)CO)C[C@@H]1C | i | + | + | i
COc1ccc(NC(=O)Nc2ccc3c(c2)C(=O)N([C@@H](C)CO)C[C@H](C)[C@H](CN(C)C)O3)cc1 | i | i | i | i
C[C@H]1CCCCO[C@@H](CN(C)C(=O)CCC(F)(F)F)[C@@H](C)CN([C@@H](C)CO)C(=O)c2cc(N(C)C)ccc2O1 | · | i | i | i
O=C(O)CCNC(=O)c1ccc(C#CC2(O)CCCCC2)cc1 | i | i | i | i
Cc1noc(C)c1NC(=O)N(C)C[C@@H]1OCCCC[C@H](C)Oc2ccc(NC(=O)c3ccncc3)cc2C(=O)N([C@H](C)CO)C[C@@H]1C | i | i | i | i
C[C@H]1CN([C@@H](C)CO)C(=O)c2cccc(NC(=O)C3CCOCC3)c2O[C@@H]1CN(C)C(=O)Nc1ccccc1 | i | i | i | i
COC(=O)CCC(=O)Nc1cc([N+](=O)[O-])ccc1OC | i | i | i | i
C[C@H]1CN([C@@H](C)CO)C(=O)c2cccc(NC(=O)NC3CCCCC3)c2O[C@H]1CN(C)S(=O)(=O)c1ccc(Cl)cc1 | i | + | i | i
CNC[C@@H]1Oc2c(NC(=O)C3CCOCC3)cccc2C(=O)N([C@H](C)CO)C[C@@H]1C | i | i | i | i
Remaining list, next part
SMILES | ID4 binder | c-Myc SMM | STAT3 binder | p53 mut binder
CNC[C@@H]1Oc2ccc(NC(=O)CCN3CCOCC3)cc2CC(=O)N([C@@H](C)CO)C[C@H]1C | i | i | i | i
OC[C@H]1O[C@@H](OC(CCCCc2ccc(O)cc2)CCc2ccc(O)cc2)[C@H](O)[C@@H](O)[C@@H]1O (some centres not stated) | i | i | i | i
Cc1ccc(C(=O)CSc2nc3sc(C)c(C)c3c(=O)[nH]2)cc1 | i | i | i | i
C[C@@H]1CN([C@@H](C)CO)C(=O)c2cccc(NC(=O)c3ccncc3)c2O[C@@H]1CN(C)Cc1ccc(C(=O)O)cc1 | i | i | i | i
Cc1noc(C)c1NC(=O)Nc1cccc2c1O[C@@H](CN(C)Cc1ccc(Cl)c(Cl)c1)[C@H](C)CN([C@H](C)CO)C2=O | i | i | i | i
C[C@@H]1CN([C@H](C)CO)C(=O)Cc2cc(NC(=O)Nc3ccc(F)cc3)ccc2O[C@@H]1CN(C)C(=O)NC1CCCCC1 | i | i | i | i
C[C@H]1CCCCO[C@@H](CN(C)Cc2ccccc2)[C@@H](C)CN([C@@H](C)CO)C(=O)c2cc(NC(=O)CCC(F)(F)F)ccc2O1 | i | i | i | i
C[C@@H]1CN([C@H](C)CO)C(=O)c2cccc(N(C)C)c2O[C@H]1CN(C)C(=O)NC1CCCCC1 | i | i | i | i
C[C@@H]1CCCCO[C@@H](CN(C)C(=O)Nc2ccccc2)[C@@H](C)CN([C@H](C)CO)C(=O)c2cc(NC(=O)c3ccccc3)ccc2O1 | i | i | i | i
COc1nnc(-c2ccc(N3CCOCC3)c(NS(=O)(=O)c3ccc(Cl)cc3)c2)c2ccccc12 | i | i | i | i
Cc1noc(C)c1NC(=O)N(C)C[C@@H]1Oc2ccc(N(C)C)cc2CC(=O)N([C@H](C)CO)C[C@H]1C | i | i | i | i
C[C@@H]1CN([C@H](C)CO)C(=O)c2cc(NC(=O)C3CC3)ccc2O[C@H]1CN(C)C(=O)Nc1ccccc1 | i | i | i | i
COCc1nc2c([nH]1)c(=O)n(C)c(=O)n2CC(C)C | i | i | i | i
C[C@H](CO)N1C[C@H](C)[C@H](CN(C)Cc2ccccc2)Oc2ncc(C#CCN(C)C)cc2C1=O | i | i | i | i
C#Cc1ccc([C@H]2C=C(C(=O)N3CCN(Cc4ccc5c(c4)OCO5)CC3)O[C@@H](OCc3ccc(CO)cc3)C2)cc1 | · | i | i | i
COc1ccc(Cl)cc1NC(=O)CN(Cc1ccccc1)S(C)(=O)=O | i | i | i | i
C[C@@H]1CCCCO[C@H](CN(C)S(=O)(=O)c2ccc(F)cc2)[C@@H](C)CN([C@@H](C)CO)C(=O)c2cc(NC(=O)CCC(F)(F)F)ccc2O1 | · | i | i | i
COc1cccc2oc(-c3ccccc3)cc(=O)c12 | i | i | i | i
COc1cccc(-c2cc(C#N)c(NC(=O)c3cccc([N+](=O)[O-])c3)o2)c1 | i | i | i | i
C[C@@H]1CN([C@@H](C)CO)C(=O)Cc2cc(NC(=O)NC3CCCCC3)ccc2O[C@@H]1CN(C)Cc1ccc2c(c1)OCO2 | i | i | i | i
C[C@H]1CN([C@@H](C)CO)C(=O)Cc2cc(NS(=O)(=O)c3ccccc3)ccc2O[C@H]1CN(C)S(=O)(=O)c1ccc(F)cc1 | i | i | i | i
COc1cc(OC)c(NC(=O)Cc2ccccc2[N+](=O)[O-])cc1Cl | i | i | i | i
Cc1cc(=O)[nH]c(SCC(=O)c2ccccc2)n1 | i | i | i | i
Cc1noc(C)c1S(=O)(=O)N(C)C[C@H]1Oc2ccc(N(C)C)cc2CC(=O)N([C@H](C)CO)C[C@@H]1C | i | i | i | i
CNC[C@@H]1Oc2ccc(NC(=O)Nc3ccc4c(c3)OCO4)cc2C(=O)N([C@@H](C)CO)C[C@@H]1C | i | i | i | i
The listing continues.
SMILES | ID4 binder | c-Myc SMM | STAT3 binder | p53 mut binder
Cc1cc(C)n(CC(O)Cn2ccc3ccccc32)n1 (configuration not stated) | + | + | i | i
C[C@@H]1CN([C@@H](C)CO)C(=O)c2cc(NS(=O)(=O)c3ccc(Cl)cc3)ccc2O[C@H]1CN(C)C(=O)Nc1ccc2c(c1)OCO2 | i | i | i | i
Cn1cc([N+](=O)[O-])c(C(=O)NCc2ccco2)n1 | i | i | i | i
C[C@H]1CN([C@@H](C)CO)C(=O)c2cc(NC(=O)Nc3ccc(F)cc3)ccc2O[C@@H]1CN(C)C(=O)Nc1ccc(F)cc1 | i | i | i | i
C[C@H]1CN([C@@H](C)CO)C(=O)Cc2cc(NC(=O)Cc3ccccc3)ccc2O[C@@H]1CN(C)Cc1ccc(C(=O)O)cc1 | i | i | i | i
O=C(NCc1ccco1)c1cc([N+](=O)[O-])ccc1N1CCOCC1 | i | i | i | i
CC(C)NC(=O)N(C)C[C@H]1OCCCC[C@H](C)Oc2ccc(NC(=O)CCCN(C)C)cc2C(=O)N([C@@H](C)CO)C[C@H]1C | i | i | i | i
CCOC(=O)c1ccc(NC(=O)Cn2cc(C#N)c3ccccc32)cc1 | i | i | i | i
O=C(c1ccco1)c1cn(CC(=O)N2CCCc3ccccc32)c2ccccc12 | i | i | i | i
COc1ccccc1/C=C/C=O | i | i | i | i
C[C@H]1CN([C@@H](C)CO)C(=O)c2cccc(NS(=O)(=O)c3cccs3)c2O[C@@H]1CN(C)C(=O)Nc1ccc(C(F)(F)F)cc1 | i | i | i | i
COc1cc2ncnc(Nc3ccc(OCc4ccccc4)cc3)c2cc1OC | · | i | i | i
C[C@H]1CN([C@@H](C)CO)C(=O)c2cccc(NC(=O)C3CCOCC3)c2O[C@@H]1CN(C)CC1CC1 | i | i | i | i
C[C@H](CO)N1C[C@H](C)[C@@H](CN(C)S(=O)(=O)c2ccc(F)cc2)OCCCC[C@H](C)Oc2ccc(NC(=O)Nc3ccc(F)cc3)cc2C1=O | · | i | i | i
C[C@@H]1CN([C@@H](C)CO)C(=O)Cc2cc(NC(=O)Nc3ccccc3)ccc2O[C@H]1CN(C)Cc1ccncc1 | i | i | i | i
COc1ccc(CN(C)C[C@H]2Oc3ccc(NC(=O)Nc4ccc(F)cc4)cc3C(=O)N([C@H](C)CO)C[C@@H]2C)cc1 | i | i | i | i
C[C@H]1CN([C@@H](C)CO)C(=O)c2cc(NC(=O)Nc3ccc4c(c3)OCO4)ccc2O[C@@H]1CN(C)C(=O)NC1CCCCC1 | i | i | i | i
C=CC[C@]12N=C(c3ccc(OCCCO)cc3)O[C@H]1c1ccccc1N(CCS(=O)(=O)c1ccccc1)C2=O | i | i | i | i
COc1ccc(CN(C)C[C@@H]2Oc3c(NS(=O)(=O)c4cn(C)cn4)cccc3C(=O)N([C@H](C)CO)C[C@H]2C)cc1 | i | i | i | i
Cc1ccc(OCC(=O)Nc2cccc(-c3nc4ccccc4[nH]3)c2)cc1 | i | i | i | i
Nc1nnc(SCC(=O)NC2CCCCCC2)s1 | i | i | i | i
C[C@H](CO)N1C[C@H](C)[C@@H](CN(C)Cc2ccncc2)Oc2ccc(NC(=O)C3CC3)cc2CC1=O | i | i | i | i
O=C(/C=C/c1ccccc1)c1ccccc1O | · | i | i | i
C[C@H](CO)N1C[C@H](C)[C@H](CN(C)S(=O)(=O)c2cn(C)cn2)Oc2ncc(-c3ccc(F)cc3)cc2C1=O | i | i | i | i
Cn1nnc2cc(C(=O)N(CCO)c3ccccc3)ccc21 | i | i | i | i
CNC[C@H]1Oc2ccc(NC(=O)Nc3ccc(C(F)(F)F)cc3)cc2CC(=O)N([C@H](C)CO)C[C@H]1C | i | i | i | i
C[C@H]1CN([C@@H](C)CO)C(=O)c2cc(N(C)C)ccc2O[C@H]1CN(C)C(=O)Nc1ccc2c(c1)OCO2 | i | i | i | i
CNC[C@H]1OCCCC[C@H](C)Oc2ccc(NC(=O)NC(C)C)cc2C(=O)N([C@@H](C)CO)C[C@H]1C | i | i | i | i
COc1ccc(S(=O)(=O)Nc2ccc3c(c2)C(=O)N([C@H](C)CO)C[C@H](C)[C@H](CN(C)Cc2ccc4c(c2)OCO4)O3)cc1 | · | i | i | i
C[C@H](CO)N1C[C@H](C)[C@@H](CN(C)C)Oc2ccc(NC(=O)CCCN(C)C)cc2C1=O | i | i | i | i
